Calb FLC: affects C. albicans growth with fluconazole. C. albicans CaCi-2 (fluconazole-resistant clinical isolate) + fluconazole, Alamar Blue growth, 48 h. growth inhibition, % (no concentration beside the values). actives 0.57% (n = 300,000);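 active = most replicates above 75%; inconclusive = exactly half above 75%; inactive = most below 75%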;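 note: all wells also contain fluconazole at 8 µg/ml as a sub-toxic cotreatment; 0% = median of DMSO wells and 100% = median of geldanamycin control wells; wells of about 8 µL received 7.5 nL stock; the first replicate is given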
RanGTP-Imp inh: inhibitors of RanGTP-importin-beta interaction, primary screen, biochemical, FRET, CFP-Ran, YFP-importin-beta, homogeneous | actives 1.1% (n = 300,000) | inhibition, % (concentration not given with the values) | AID 2216 | cell-free CFP-Ran/YFP-importin-beta FRET ratio;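 active = most replicates above 15%; inconclusive = exactly half above 15%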;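 note: 0% = DMSO wells and 100% = Ran loaded with GDP instead of GTP; wells of about 40 µL received 100 nL stock; the first replicate is given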
LANA-H2A inh: blocks KSHV LANA binding to histone H2A/H2B. Q9QR71. actives 0.6% (n = 320,000). inhibition, % (no concentration beside the values). cell-free LANA-H2A/H2B peptide, fluorescence polarization; in the data active = inhibition mostly above about 10%, no sharp cut-off; inactive = mostly below about 6.7%;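 note: stock transfer was 7.5 nL into about 10 µL; 0% = median of vehicle wells and 100% = median of positive control wells; one replicate is shown; the record names a cut of 25% in any replicate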
UCH37 inh: inhibitors of human deubiquitinating enzyme UCH37; Q9Y5K5; purified proteasome/UCH37, Ub-AMC cleavage fluorescence; inhibition, % (no concentration beside the values); actives 0.33% (n = 330,000); AID 588478;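 active = mean of two replicates above 20%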;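 note: 0% = compound-free wells with enzyme and 100% = wells lacking proteasome; stock transfer was 100 nL into about 20 µL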
Target sequence (Q9Y5K5 whole entry, looked up): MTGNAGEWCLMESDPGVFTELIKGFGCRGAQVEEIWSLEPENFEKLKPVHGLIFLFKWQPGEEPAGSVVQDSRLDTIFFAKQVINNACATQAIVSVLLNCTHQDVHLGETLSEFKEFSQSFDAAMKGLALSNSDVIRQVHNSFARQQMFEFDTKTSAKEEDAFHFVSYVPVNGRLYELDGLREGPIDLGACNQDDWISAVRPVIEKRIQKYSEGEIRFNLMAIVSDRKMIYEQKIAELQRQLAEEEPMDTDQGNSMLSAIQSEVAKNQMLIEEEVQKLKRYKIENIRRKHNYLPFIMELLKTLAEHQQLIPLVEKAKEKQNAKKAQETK
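system = Proteasome-associated human UCH37 deubiquitinase | amount = 0.15 nM proteasome as dispensed | medium = pH 7.4 Tris-HCl (50 mM) with ovalbumin, ATP-MgCl2, DTT | incubation = 30 min preincubation with enzyme, 25 min cleavage at room temperature | detection = AMC fluorescence 355/460 nm | read-out basis = percent inhibition | controls = no-proteasome and no-compound wells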
A1 inh: inhibitors of the anti-apoptotic protein A1, read as caspase activation; MEF A1-2A-BIM cells, Caspase-Glo 3/7 luminescence, 3 h; percent of clofoctol response, vehicle zero; caspase activation, % (concentration not given with the values); actives 0.066% (n = 330,000);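 active = over half of replicate activation scores above 10%, or exactly half above 10 with the replicate mean above 10; inconclusive = replicate mean below 10 yet half the replicates above 10; inactive = over half of replicates below 10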;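 note: wells of about 30 µL received 50 nL stock; many hits fall short of the cut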
B2AR ag: activates human beta-2 adrenergic receptor causing internalization; P07550; Am2.2-beta2AR cells, FAP receptor internalization, flow cytometry; reference of the scale not given here; response, % (no concentration beside the values); actives 0.43% (n = 340,000);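 active = response above a set limit, near 3 SD of response in nonfluorescent compounds, cut at about 42% in these data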;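 note: stock transfer was 100 nL into about 11 µL; a reference agonist was the positive control; negative values mostly stem from fluorescent compounds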
Target sequence (P07550 whole entry, looked up): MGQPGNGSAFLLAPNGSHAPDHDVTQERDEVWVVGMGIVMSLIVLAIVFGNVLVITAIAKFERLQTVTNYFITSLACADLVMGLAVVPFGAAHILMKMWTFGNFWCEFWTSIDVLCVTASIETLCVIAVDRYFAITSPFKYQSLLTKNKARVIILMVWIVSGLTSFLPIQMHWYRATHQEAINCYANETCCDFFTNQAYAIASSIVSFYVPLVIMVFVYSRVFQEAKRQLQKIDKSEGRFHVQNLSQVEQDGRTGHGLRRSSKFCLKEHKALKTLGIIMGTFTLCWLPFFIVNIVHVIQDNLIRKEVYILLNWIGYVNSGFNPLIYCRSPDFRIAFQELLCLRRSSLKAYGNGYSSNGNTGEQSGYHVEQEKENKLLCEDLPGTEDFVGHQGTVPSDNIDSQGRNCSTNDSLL
T cruzi inh: T. cruzi replication inhibition | T. cruzi beta-gal in NIH3T3, luminescence, 90 h | actives 1.4% (n = 300,000) | inhibition, % (test concentration not listed);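 active = mean inhibition across valid replicates above about 55%, limit read from the data; inconclusive = mean below that limit but half or more replicates reach it; inactive = mean below it, under half of replicates reach it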;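 note: signal also drops with host cell toxicity which is not excluded here; 0% = plate median of DMSO wells and 100% = zero luminescence signal; higher percent means less beta-gal luminescence so fewer parasites; stock transfer was 50 nL into about 50 µL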
Beta apoptosis: beta cell apoptosis inhibition. INS-1E cytokine-induced death, ATP luminescence, 48 h; percent of positive-control rescue, neutral wells zero. protection from apoptosis, % (concentration not given with the values). actives 0.8% (n = 300,000). AID 435005;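 active = all replicates at 75% or more, or half of them and the mean; inconclusive = half reach 75% but not the mean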;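 note: 0% = cytokine-treated negative control wells and 100% = positive control rescue; higher means more ATP so stronger rescue from cytokine killing; wells of about 40 µL received 100 nL stock; the first replicate is given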
An asterisk follows results filed as active; ? = inconclusive; . = no result given.

SMILES	Calb FLC	RanGTP-Imp inh	LANA-H2A inh	UCH37 inh	A1 inh	B2AR ag	T cruzi inh	Beta apoptosis
CCOc1ccc(C(=O)Nc2cc3c(cc2N2CCCC2)n(CC)c(=O)n3CC)cc1OCC	-4	8.4	8.9	-4.5	-2.2	5	-3	3
O=C(Cc1ccc(F)cc1)N1CCC(N2CCC(C(=O)N3CCOCC3)CC2)CC1	9	3.0	-3.4	0.1	0.0	-4	-8	-3
C=CC[C@H](CC(=O)NCCO)C(=O)N[C@@H](COC(=O)[C@@H](CC=C)CC(=O)OC(C)(C)C)Cc1c[nH]c2ccccc12	.	.	4.2	-1.4	-0.4	-2	.	7
Clc1ccc(-n2nnnc2-c2cnc(-c3ccncc3)nc2-c2cccs2)cc1	9	-3.9	-1.1	3.8	0.0	-1	4	2
Cc1csc(NC(=O)CSc2ncn(-c3ccccc3)n2)n1	-3	2.0	-2.1	4.9	0.2	-12	0	-3
Cc1ccc2nc3c(c(C(=O)O)c2c1)CCC3	9	1.3	-2.6	-3.8	0.3	-5	-7	-6
COc1cc2c(cc1OC)CN(CC(=O)Nc1ccc3c(c1)OC(F)(F)O3)CC2	7	4.3	9.9	0.7	-0.8	-7	-9	-3
CC(=O)Nc1ccc(S(=O)(=O)N2CCSC2)cc1	-17	1.6	1.8	.	0.2	-1	-3	-7
Nc1ccccc1SCC(=O)Nc1ccc(N2CCOCC2)cc1	0	0.9	1.9	-1.3	1.0	-1	4	-8
Cc1ccc(C)c(S(=O)(=O)N2CCN(C(=O)C3CCN(C(=O)c4ccc(F)cc4)CC3)CC2)c1	4	.	-2.5	0.7	0.5	60*	26	7
CCCNC(=O)C1CC(=O)N(c2ccc(OCC(=O)Nc3cc(C)cc(C)c3)cc2)C1 (stereo not given)	-4	-3.0	4.7	3.3	0.8	-3	-13	-2
CCOc1ccc(NC(=O)CN(C)C(=O)CCNC(=O)c2ccc(Br)cc2)cc1OCC	1	-1.5	2.2	-2.1	0.0	8	-3	0
CCN1CCN(C(=O)C2CCN(C(=O)c3cc4sccc4n3CC)CC2)CC1	6	6.9	5.7	2.2	0.4	3	-33	-3
CCC1(c2ccc(OC)cc2)NC(=O)N(CC(=O)c2ccc3c(c2)OCCO3)C1=O (stereo not given)	.	.	-4.8	0.5	-0.6	-6	.	-2
Cc1cc(O)c(C=Nc2cccc(Cl)c2)c(=O)o1	-2	-4.6	.	4.2	.	-5	-17	.
COc1ccccc1Nc1nc(N)nc(CN2CCCCCC2)n1	9	4.4	7.5	-1.4	0.2	-11	2	0
CCN(CCn1cccn1)C(=O)CC1C(=O)NCCN1Cc1ccc(F)cc1 (stereo not given)	0	1.6	5.4	1.3	0.0	1	-8	-3
CCOC(=O)c1c(C)[nH]c(C(=O)NCCN2CCOCC2)c1C	-5	-1.2	3.8	2.4	0.2	0	-17	6
O=C(NC1CCCC1)C1CCN(c2cnccn2)CC1	2	-0.7	-3.5	-8.5	-0.7	4	15	-2
COC(=O)[C@H](C)NC(=O)Nc1ccccc1F	-14	-0.1	3.0	0.4	0.8	-2	-1	-4
N#Cc1cc([N+](=O)[O-])ccc1NC(=O)COC(=O)CN1C(=O)C2CCCCC2C1=O (stereo not given)	.	.	1.2	3.0	1.4	1	.	-3
C/C(=N/NC(=O)c1nnn(-c2nonc2N)c1COc1ccccc1)c1ccc(O)cc1	4	1.0	4.5	.	1.0	-6	-1	2
O=C(NCc1nc2ccccc2[nH]1)C1=C[C@H](c2ccccc2)C[C@H](OCc2ccc(CO)cc2)O1	-3	1.6	-8.2	-0.2	0.4	-3	18	-5
CN1C(C(=O)NCc2cccc(Br)c2)CC2Cn3c(nc4ccccc43)C21 (stereo not given)	-16	0.0	-5.6	-0.6	-0.2	2	-4	-14
COc1cc(C2CC(=O)n3c(nc4ccccc43)S2)cc(OC)c1OC (stereo not given)	-3	-0.7	.	1.5	.	.	-11	.
CCCN1CCN(C(=O)Cn2cnc3ccc(S(=O)(=O)N4CCC(C)CC4)cc3c2=O)CC1	11	-2.0	5.7	4.0	-0.5	-1	17	.
CC(C)Oc1cccc(C(=O)C2CCCN(C(=O)c3ccccn3)C2)c1 (stereo not given)	-2	-0.3	0.6	-0.9	-0.4	9	-1	-2
Cc1csc(NC(=O)c2cccnc2Cl)n1	0	2.1	-0.5	5.0	-4.2	3	-6	.
COCCCn1c(O)c(/C=C2\N=C(C#N)C(=Nc3ccc(C)cc3)O2)sc1=S	3	-13	-3.9	.	-1.8	-312	5	-4
CCc1cc(C(=O)Nc2ccccc2N2CCOCC2)sc1C	.	.	1.6	2.8	2.7	-5	.	3
CN1C(=O)c2cccc3c(S(=O)(=O)N4CCCC4C(=O)O)ccc1c23 (stereo not given)	-5	7.5	0.1	-131	-0.1	-21	-5	-6
O=C(O)c1cc(S(=O)(=O)N2CCOCC2)ccc1N1CCCCC1	11	?	1.5	-0.5	0.2	2	-5	-7
COc1cc(NC(=O)c2cccc(S(=O)(=O)N3CCCCC3)c2)cc(OC)c1OC	.	.	-6.6	4.0	1.4	4	.	1
O=C(O)C1Sc2[nH]c(=O)sc2C2c3ccc(O)cc3OC(=O)C12 (stereo not given)	2	.	6.0	.	-0.7	-6	-15	-2
CC1CCN(CCCNC(=O)c2ccc(CS(=O)(=O)Cc3ccc(Cl)cc3)o2)CC1	-2	-0.7	-3.4	0.2	-0.4	6	-5	-2
CC(C)NC(=O)COC(=O)c1ccccc1Oc1ccccc1	1	6.8	2.0	3.8	-0.3	5	9	-9
CCCN(CC1CC1)C(=O)COC(=O)c1oc2c(F)cccc2c1C	.	.	-1.0	-0.1	-0.2	4	.	-6
CCCCCC(C)NC(=O)c1cc(S(=O)(=O)N2CCCCC2)ccc1N1CCOCC1 (stereo not given)	.	.	-0.4	-2.3	0.2	-10	.	1
Brc1ccc(-c2nc3ncccn3c2Nc2ccc3c(c2)OCCO3)o1	23	0.6	2.9	5.3	-0.7	4	5	-6
Fc1cc(F)cc(Nc2nc(Cl)nc(NC3CCCC3)n2)c1	.	.	3.2	3.9	-0.9	11	.	-1
COc1ccc(OC)c(/C=C/C(=O)OCC(=O)N2CCCC2)c1	.	.	-1.5	-47	0.5	3	.	-3
COc1ccccc1N1CCN(S(=O)(=O)c2cc3c(cc2C)NC(=O)CO3)CC1	-2	1.4	-2.6	4.7	0.0	1	1	-2
O=C(CN1C(=O)NC2(CCCC2)C1=O)OCCOc1ccccc1	-1	1.0	-1.0	-0.6	0.7	10	0	.
CC(C)(C)C(=O)Nc1nc2cc3c(cc2s1)OCO3	-19	1.4	-2.5	2.7	-1.2	-5	23	7
Cc1ccc(F)c(N=Cc2c(O)c3ccccc3oc2=O)c1	22	-0.6	-1.9	-15	0.8	-17	-13	-5
CC(C)c1ccccc1OCCNC(=O)c1cncc(Br)c1	4	9.6	-1.7	0.4	-0.2	-8	12	-3
COc1cc(Cl)ccc1NC(=O)COc1ccccc1C(=O)NN	11	4.9	7.6	4.0	0.1	1	48	-1
COC(=O)c1ccc(C(=O)OC)c(NC(=O)C2CCCO2)c1 (stereo not given)	12	3.7	16*	-9.5	0.6	4	-3	-5
Cc1ccc(N2CCN(CC(O)COc3cccc4ccccc34)CC2)cc1 (stereo not given)	-12	-0.9	-0.9	4.3	0.0	-13	-10	-1
O=C(c1ccccc1)c1cc(-c2ccccc2)on1	5	-3.7	-5.8	4.2	-0.6	3	3	-1
COC(=O)c1ccccc1NC(=O)COC(=O)CSc1nnc(N)s1	0	5.5	2.1	-2.0	0.4	-3	-4	-5
COCCCN1C2=C(C(=O)CC(C)(C)C2)C(c2ccc(OC)c(OC)c2)C2=C1CC(C)(C)CC2=O	-5	0.9	2.5	0.2	0.2	34	0	-7
Cc1ccc(OCc2n[nH]c(=S)n2N)cc1C	1	1.4	-1.7	4.4	0.3	-2	-2	-3
Cc1cc(C)nc(NC(=O)c2ccc(Br)s2)n1	-11	-4.2	2.4	1.0	-1.6	-15	-12	.
Cc1cc(N=Nc2ccc(Cl)cc2)cc(CN2CCOCC2)c1O	4	0.3	-0.7	3.8	-0.3	-6	7	-6
CCC(C)(C)NC(=O)CN(C(=O)CNS(=O)(=O)c1ccccc1)c1ccc2c(c1)OCCO2	-1	-2.3	-2.0	3.8	-0.8	3	6	3

(list continues)
SMILES	Calb FLC	RanGTP-Imp inh	LANA-H2A inh	UCH37 inh	A1 inh	B2AR ag	T cruzi inh	Beta apoptosis
O=C(COc1ccccc1)Nc1ccc(-c2ccc(N3CCOCC3)nn2)cc1	-8	1.9	-3.9	0.4	0.4	4	8	5
Cc1ccc(C(=O)CSc2ncnc3ccccc23)o1	.	.	3.6	3.0	-0.4	-8	-4	4
O=C(CCC1COc2ccccc2O1)Nc1ccccn1 (stereo not given)	-6	-0.5	-4.7	-0.3	0.8	6	7	-17
COCC(=O)N/N=C\c1ccc(OC/C=C/c2ccccc2)c(OC)c1	-1	-0.4	4.4	.	1.3	11	-13	0
COc1cc(Cl)c(C)cc1NC(=O)CSc1nnc(-c2cccnc2)n1Cc1ccco1	6	-0.3	5.0	9.0	0.0	-14	12	-7
CC12CCC(=O)N1C(C(=O)N1CCN(S(=O)(=O)c3ccccc3F)CC1)CS2 (stereo not given)	0	6.7	4.8	4.7	-0.5	-3	-5	1
CCOC(=O)c1ccc(-n2c(CCC(=O)O)ccc2-c2cccs2)cc1	1	4.7	-3.4	0.9	0.1	2	-13	-1
O=C(CSc1ccccn1)Nc1ccc2c(c1)oc1ccccc12	?	0.4	4.9	0.8	0.7	8	-6	0
COc1ccc(CCN2C(=O)c3cccnc3C2=O)cc1OC	-20	5.7	-0.5	1.0	1.8	3	-11	1
Cn1c(=O)c2c(ncn2CCCC(=N)N2CCOCC2)n(C)c1=O	-5	?	2.7	4.0	-0.6	-11	0	-3
CCOP(=O)(O)c1ccccc1OCCOCCOc1ccccc1P(=O)(O)OCC	-5	-1.0	-5.1	1.3	0.4	2	-10	.
CCOC(=O)c1c(NC(=O)CC2Nc3cc(C)c(C)cc3NC2=O)sc(C)c1C (stereo not given)	-6	7.1	2.7	2.8	1.2	-7	-10	-5
Cc1ccc(OCc2cc(C(=O)N3CCN(C4CCCCC4)CC3)no2)cc1C	8	1.0	-7.1	0.6	0.2	1	16	0
Cc1ccc(C)c(N2N=C(C(=O)Nc3ccccc3N3CCOCC3)CCC2=O)c1	.	.	-6.6	6.1	-0.9	-3	.	-1
CC(C)C[C@H](NC(=O)c1nc[nH]c1C(=O)NC(c1ccccc1)c1ccccc1)C(=O)OCc1ccccc1	-3	6.9	3.4	1.5	2.4	-2	0	-9
Cc1ccc(N2CCN(S(=O)(=O)c3ccc(C)cc3)CC2)cc1	5	6.1	-12	1.9	1.4	0	-8	.
COc1ccc2sc(-c3ccccc3OC)c(-c3ccc(OCCN4CCCC4)cc3)c2c1	.	.	-6.5	.	1.6	21	.	8
CCc1nn(-c2cc(Oc3cccc4ccccc34)nc(-c3ccccc3)n2)c(N)c1C#N	.	.	-1.9	-5.6	4.2	4	.	19

Assay outcomes as filed in PubChem.
